High-throughput results from PubChem.
Sfp inh: qHTS Assay for Inhibitors of Bacillus subtilis Sfp phosphopantetheinyl transferase (PPTase); Potency, µM, for the others: max response, negative = inhibition, hits mostly inhibitors; 4'-phosphopantetheinyl transferase ffp (Bacillus subtilis), Q9F4F7; Biochemical Sfp PPTase activity, qHTS; hit rate 3.5% among 310,000; active = well fitted inhibition curve with a large enough effect; inconclusive = small, poorly fitted or top-dose-only effect, or another doubt; inactive = no such curve, though single readings can be large or run the other way;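 note: the enzyme is Sfp with the accession as filed and its product quenches rhodamine fluorescence; potency is the fitted concentration of half-maximal effect; 0% = enzyme reaction without inhibitor and -100% = no enzyme wells; top concentration of the series not given in the record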
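Fluorescence-quenching assay with 15 nM Sfp, 5 uM rhodamine-CoA and 12.5 uM BHQ-2-labelled ybbR peptide in pH 7.6 Hepes/MgCl2 buffer. Enzyme was pre-incubated with compound for 15 min at room temperature. Rate was taken from the 30-min fluorescence change (525/598 nm).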
TRPML1 blocker: qHTS for Inhibitors of the Human Mucolipin Transient Receptor Potential 1 (TRPML1) | Mucolipin-1 (Homo sapiens), Q9GZU1 | activity change, negative = inhibition, % (no concentration beside the values) | TRPML1-inducible cells, Ca2+ dye fluorescence, FDSS; stronger effect = lower value; inhibition of EC80 agonist-evoked calcium signal | AID 624415, 2012 | hit rate 0.02% among 390,000; in the data active means activity change below about -50%; inconclusive means about -30% to -50%; inactive means above about -30%;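 note: stimulus is agonist 54-4 at its EC80 concentration; % is set by controls: 0 for no effect and ±100 for the full control effect; compound concentration not given in the record; the text of the record puts the active cut at -80%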
Target sequence (Q9GZU1 whole entry, looked up): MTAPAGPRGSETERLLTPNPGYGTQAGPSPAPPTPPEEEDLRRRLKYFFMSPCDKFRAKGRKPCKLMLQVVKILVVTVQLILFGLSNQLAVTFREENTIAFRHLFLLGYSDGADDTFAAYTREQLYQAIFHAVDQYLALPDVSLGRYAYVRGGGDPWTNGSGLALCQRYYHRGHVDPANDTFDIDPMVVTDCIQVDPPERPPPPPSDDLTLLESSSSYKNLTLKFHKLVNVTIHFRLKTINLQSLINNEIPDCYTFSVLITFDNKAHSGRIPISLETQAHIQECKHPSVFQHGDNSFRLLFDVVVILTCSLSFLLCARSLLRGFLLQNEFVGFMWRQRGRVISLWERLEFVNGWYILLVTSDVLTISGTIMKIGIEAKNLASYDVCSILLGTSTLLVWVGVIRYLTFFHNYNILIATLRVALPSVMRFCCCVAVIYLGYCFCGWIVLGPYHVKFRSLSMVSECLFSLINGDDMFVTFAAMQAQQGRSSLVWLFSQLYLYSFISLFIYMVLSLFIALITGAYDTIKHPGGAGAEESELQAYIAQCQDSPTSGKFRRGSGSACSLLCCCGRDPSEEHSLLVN
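Tet-induced TRPML1-DL cells loaded with Ca8 no-wash calcium dye were read kinetically on FDSS. Compound addition was followed by EC80 agonist 54-4 (4 uM final); inhibition was read over 110 s.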
gsp ag: qHTS for Agonist of gsp, the Etiologic Mutation Responsible for Fibrous Dysplasia/McCune-Albright Syndrome: qHTS; hit rate 0.13% among 340,000; gsp mutant cells, cAMP HTRF, 30 min; control for the full effect not named in the record; Potency, µM (highest dose often 76.9 µM), for inactives: at the highest dose activation (cAMP increase), actives largely listed as activators; active = well fitted activation curve with a large enough effect; inconclusive = small, poorly fitted or top-dose-only effect, or another doubt; inactive = no such curve, though single readings can be large or run the other way; cell line not stated here;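 note: phosphodiesterase inhibitor Ro 20-1724 added with compounds to block cAMP breakdown; potency is the fitted concentration of half-maximal effect; nearly all actives have a fitted effect of over 60% in size; about a fifth of the inactives were tested at one dose only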
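Cells stably selected in G418 were plated at 2000/well, grown 16-24 hr, then given compounds in DMSO with the PDE inhibitor […] (300 uM solution added) for 30 min at 37C; cAMP was read by HTRF.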
TRPV1 PAM: HTS Assay for Compounds that Act as Potentiators of the Vanilloid Receptor 1 | Transient receptor potential cation channel subfamily V member 1 (Homo sapiens), Q8NER1 | TRPV1-expressing cells, Fluo-8 calcium influx, capsaicin EC20 potentiation; host cell line not named in the record; control for the full effect not named in the record | hit rate 0.02% among 320,000 | potentiation, % at 8.33 µM; active means potentiation above 80%; inconclusive means 30% to 80%; inactive means below 30%; note: 0% is about no effect
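Fluo-8 calcium influx in TRPV1-expressing cells, kinetic read (ex 480/em 520 nm). Compound added and read 3 min for agonist activity, followed by capsaicin at EC20 final and 2 min further read for enhancement.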
Menin MLL FP FL: qHTS Assay for Inhibitors Targeting the Menin-MLL Interaction in MLL Related Leukemias: Competition With Fluorescein Labeled MLL-derived Peptide | Fluorescence polarization, fluorescein-MLL peptide displacement from menin | FP activity change, % at 61.4 µM | 290,000 tested, under 10 active; inconclusive = falling polarisation curve, or a change in total fluorescence; inactive = total fluorescence flat and polarisation flat or rising; no compound was filed as active; the % refers to the polarisation; negative = inhibition;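 note: % of control where 0% means no effect; inhibitors lower the polarisation; unlabelled MLL peptide was the positive control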
ClpP mod: qHTS Assay for Activators of ClpP | purified B. subtilis ClpP, FRET peptide cleavage, 20 min | Potency, µM (highest dose often 57.5 µM), inactives show at the top dose activity change, negative = active | hit rate 1.9% among 340,000; active = well fitted falling curve with a large enough effect; inconclusive = small, poorly fitted or top-dose-only effect; inactive = no such curve, though single readings can be large or run the other way; note: potency is the fitted concentration of half-maximal effect; the source files actives as falling curves though it sought activators and does not explain the sign; nearly all actives have a fitted effect of over 65% in size; many hits overshoot -100%
Target sequence (P80244 whole entry, looked up): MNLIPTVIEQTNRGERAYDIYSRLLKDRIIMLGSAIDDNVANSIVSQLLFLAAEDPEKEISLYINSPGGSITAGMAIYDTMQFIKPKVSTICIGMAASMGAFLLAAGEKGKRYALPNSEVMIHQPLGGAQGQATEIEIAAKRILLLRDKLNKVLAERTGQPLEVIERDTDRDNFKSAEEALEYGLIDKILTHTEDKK
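Buffer: 100 mM Tris/HCl pH8, 100 mM KCl, 0.05% low protease BSA, 2.5% glycerol, 0.01% Tween-20. ClpP 10 microg/mL final; 20 min RT; delta FRET normalized to ADEP and DMSO controls.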
gsp antagonist: qHTS for Antagonists of gsp, the Etiologic Mutation Responsible for Fibrous Dysplasia/McCune-Albright Syndrome: qHTS | gsp-mutant cells, cAMP HTRF, 30 min; control for the full effect not named in the record | Potency, µM (top dose mostly 76.9 µM), inactives show top-dose activity change, negative = inhibition, most hits filed as inhibitors | hit rate 0.4% among 340,000 | AID 624288, 2012; active = falling curve of any shape with a large fitted effect; inconclusive = falling curve, mostly with a smaller effect; inactive = flat or rising curve; cell line not stated here;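 note: intracellular cAMP measured with PDE inhibitor Ro 20-1724 present during compound exposure; potency is the fitted concentration of half-maximal effect; % is set by controls: 0 for no effect and ±100 for the full control effect; nearly all actives have a fitted effect of over 65% in size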
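Cells, 2000/well, grown 16–24 h in DMEM 10% FBS with 0.5 mg/ml G418, then compounds plus […] (300 uM addition stock), 30 min at 37C. cAMP read by HTRF (cAMP-d2 and anti-cAMP antibody-K in lysis buffer) after 30 min RT.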
Starred values were filed as active, the others as inactive; ? = inconclusive; · = no result given; & = joins results of further samples; ! = not active in a repeat; [ ] = remark or other dose. An excerpt, so the mix of outcomes need not match the whole.

| mol | TRPML1 blocker | Sfp inh | gsp antagonist | ClpP mod | gsp ag | TRPV1 PAM | Menin MLL FP FL |
| --- | --- | --- | --- | --- | --- | --- | --- |
| Cc1c(C)n(Cc2ccccc2)c2ccc(C(=O)OCCN(C)C)cc12 | -10.6 | -18.8%&-12.5% | 14.2% | · | -12.1% | 8.0 | 0.4&-7.8 |
| CCc1ccccc1OC[C@@H](O)CN[C@H]1CCCc2ccccc21 | 3.0 | 50.1µM* | 3.7% | -1.6% | · | 4.6 | 90.2[activator] |
| CN(C)CCCSc1ccccc1NC(=O)/C=C/c1ccccc1 | · | 10.9%&18.6% | · | · | · | 12.1 | 1.7&0.0 |
| CCCC(=O)O[C@]1(C(=O)COC(C)=O)CC[C@H]2[C@@H]3C[C@H](F)C4=CC(=O)C=C[C@]4(C)[C@@]3(F)[C@@H](O)C[C@@]21C | 5.0 | -5.5% | -1.9% | 2.1% | · | -4.0 | -1.9 |
| CN(C)C/C=C(\c1ccc(Br)cc1)c1cccnc1 | -2.6 | 6.1%&9.4% | 2.3% | 1.3% | · | 11.1 | -5.0 |
| O=C(Nc1cc(-c2ccccc2)nn1-c1ccccc1F)c1ccc([N+](=O)[O-])cc1 | -8.3 | · | -28.3% | -0.4% | · | -7.8 | · |
| Nc1ncnc2c1c(-c1ccc(Oc3ccccc3)cc1)cn2C1CCCC1 | 5.1 | ? | -21.8% | 28.2µM* | · | -8.5 | 3.1&10.2 |
| COc1cc(N)c(Cl)cc1C(=O)N[C@@H]1CCN(CCCOc2ccc(F)cc2)C[C@@H]1OC | · | 7.6% | · | · | · | -1.8 | -1.5 |
| CC(=O)Oc1ccc2c(C)cc(=O)oc2c1 | 18.5 | 17.9% | -1.3% | 546.2% | 2.2% | -8.3 | 4.4 |
| C[C@@H]1C[C@H]2[C@@H]3CCC4=CC(=O)C=C[C@]4(C)[C@@]3(Cl)[C@@H](O)C[C@]2(C)[C@@]1(OC(=O)c1ccco1)C(=O)CCl | -5.8 | · | ? | 0.1% | · | -6.4 | · |
| COc1cc(N)c(Cl)cc1C(=O)N[C@H]1CCN(CCCOc2ccc(F)cc2)C[C@H]1OC | -0.3 | -9.8% | -5.0% | -0.9% | · | 8.0 | 2.5[24.8 µM] |
| Cc1cc(=O)oc2cc(O)ccc12 | · | 8.5% | 1.9% | 5.0% | · | · | -1.5[24.8 µM] |
| Cn1ccc2cc3c(cc21)CCN3C(=O)Nc1cccnc1 | -2.9 | ? | -13.4% | -14.3% | · | 5.5 | ? |
| CC1(C)O[C@@H]2C[C@H]3[C@@H]4C[C@H](F)C5=CC(=O)C=C[C@]5(C)[C@@]4(F)[C@@H](O)C[C@]3(C)[C@]2(C(=O)CO)O1 | -1.3 | 15.6% | -15.0% | 0.3% | · | -2.6 | 3.4 |
| CCCCOc1cc(C(=O)OCCN(CC)CC)ccc1N | -7.6&6.8 | 30.4%[activator] | -7.3%&-4.9% | -6.2%&-1.9% | · | ? | -3.2[24.8 µM] |
| COC(=O)N/N=C/c1c[n+]([O-])c2ccccc2[n+]1[O-] | 6.7 | · | -5.1% | -1.6% | · | 0.9 | · |
| COc1cc(C2Oc3cc(C4Oc5cc(O)cc(O)c5C(=O)C4O)ccc3OC2CO)ccc1O (stereo not drawn) | 1.4 | -1.9%&3.4% | ? | 2.1% | · | 20.1 | -2.9&4.3 |
| CC[C@]12CCCN3CCc4c(n(c5ccccc45)[C@](O)(C(=O)OC)C1)[C@@H]32 | 2.6 | · | 4.6% | -9.6% | · | -7.6 | · |
| CCCCCCCCCCCCCCC[C@@H](O)[C@@H](N)CO | -0.1 | 44.7µM*! | -1.6% | -0.3% | · | · | 5.1&18.5 |
| CCCCN(CCCC)CCCOC(=O)c1ccc(N)cc1 | -2.8 | 20.2%&-2.6%&9.3% | -2.4% | -0.5% | · | -8.8 | 2.3 |
| CCC(C(=O)Nc1ccccc1N1CCCC1)c1ccccc1 (stereo not drawn) | 21.4 | 8.7% | -28.7% | 0.8% | -38.1%[inhibitor] | ? | · |
| O=C1c2c(O)ccc(O)c2C(=O)c2c(NCCNCCO)ccc(NCCNCCO)c21 | 5.4&8.5 | -57.8%&-0.3% | ? | 1.1%&-15.5% | -2.6% | -1.7 | ? |
| CC(=O)OCC(=O)[C@@]1(O)CC[C@H]2[C@@H]3CCC4=CC(=O)C=C[C@]4(C)[C@@]3(F)[C@@H](O)C[C@@]21C | 7.2 | · | -6.6% | 2.0% | · | -2.1 | · |
| O=C(O)Cc1sc(-c2ccccc2)nc1-c1ccc(Cl)cc1 | 20.8 | · | · | -28.3% | ? | · | · |
| CC1O[C@@H](OCC2O[C@@H](Oc3cc(O)c4c(c3)OC(c3ccc(O)cc3)CC4=O)[C@H](O)[C@@H](O)[C@@H]2O)[C@H](O)[C@H](O)[C@H]1O (stereo partly drawn) | · | · | -12.0% | -6.4% | · | -3.8 | · |
| CN(C)CC/C=C1/c2ccccc2COc2ccc(CC(=O)O)cc21 | 14.0 | · | 1.5% | 1.8% | · | · | · |
| CCCC1(c2ccccc2)NC(=O)N(CC(=O)N(C)Cc2c(F)cccc2Cl)C1=O (stereo not drawn) | 12.4 | 10.5% | 4.5% | 0.4% | -7.7%[15.4 µM] | -40.4 | 2.1 |
| COc1ccc(C(=O)c2ccccc2)c(O)c1 | 1.2 | -22.1%&14.5%&-15.5%&-4.4% | -0.6% | 0.5% | 3.2% | -31.0 | 2.7 |
| CCCC(=O)O[C@]1(C(=O)CCl)[C@@H](C)C[C@H]2[C@@H]3CCC4=CC(=O)C=C[C@]4(C)[C@@]3(F)C(=O)C[C@@]21C | 73.0 | -2.6% | ? | -0.4% | · | -2.9 | 1.0 |
| CCCOc1ccc2nc(NC(=O)OC)[nH]c2c1 | · | -1.9%&9.1% | · | · | · | 3.8 | -2.3&-1.5 |
| CCN(CC)CC1CCCCN1CC(=O)N1c2ccccc2C(=O)Nc2cccnc21 (stereo not drawn) | · | 10.6%&22.0% | · | · | · | 0.0 | -1.1&2.9 |
| N=c1nc(N2CCCCC2)cc(N)n1O | -15.7&-8.5 | 3.8%&-0.6%&-13.6%&7.0%&1.1% | 2.3%&-8.4% | -2.1%&0.9% | · | -4.1 | -1.9 |
| O=C(NC1CCN(CCc2c[nH]c3ccccc23)CC1)c1ccccc1 | -1.8 | -13.4%&14.5% | 6.0% | 0.6% | 9.4% | 16.9 | -10.0&0.6 |
| O=[N+]([O-])c1cncn1CCN1CCOCC1 | -16.3 | · | 14.3% | 0.1% | 8.2% | · | · |
| COc1ccc(-c2oc3c(CC=C(C)C)c(O[C@@H]4O[C@H](CO)[C@@H](O)[C@H](O)[C@H]4O)cc(O)c3c(=O)c2O[C@@H]2O[C@@H](C)[C@H](O)[C@@H](O)[C@H]2O)cc1 | · | 14.5% | · | · | · | -7.2 | 1.5 |
| CN[C@@H]1[C@H](O)[C@H](NC)[C@H]2O[C@@]3(O)C(=O)C[C@@H](C)O[C@H]3O[C@@H]2[C@H]1O | 13.9 | 20.3%&12.4%&-8.1% | 5.9% | 1.2% | ? | -5.5 | -1.4&1.3&21.2 |
| CCCOc1ccc(C(=O)OCCN(CC)CC)cc1N | 0.6 | 18.8% | 4.8% | -0.1% | · | -3.2 | 0.4[24.8 µM] |
| O=C(O)Cc1cn(-c2ccccc2)nc1-c1ccc(Cl)cc1 | 4.3 | 44.7µM*! | · | · | 3.6%[15.4 µM] | 3.5 | -4.6&-2.0 |
| CN(C)S(=O)(=O)n1cc(/C=C(\NC(=O)c2ccccc2)C(=O)NCCCn2ccnc2)c2ccccc21 | 18.5&16.5 | 14.3% | 9.1% | 0.1%&-0.8% | ? | ? | · |
| CC(Cc1cccc(C(F)(F)F)c1)NCCOC(=O)c1ccccc1 (stereo not drawn) | 14.7&-1.6 | -4.6% | -8.9%&-2.3% | 0.0%&2.3% | · | 6.6&-7.7 | -5.5 |
| CCN(CCCCOC(=O)c1ccc(OC)c(OC)c1)C(C)Cc1ccc(OC)cc1 (stereo not drawn) | -10.0 | -2.2%&27.6% | -0.3% | -0.7% | · | 2.6 | -0.8&3.2 |
| O=C(O)c1cc(=O)c2ccccc2o1 | -9.7 | 18.8%&-15.2% | 8.6% | -1.3% | 19.4% | 12.7 | -4.0 |
| CC(C)NNC(=O)c1ccncc1 | -6.5 | 21.4%&15.7%&13.9% | 2.5% | -2.3% | · | -5.1 | 1.4 |
| Cc1nc2c3ccccc3nc(NNC(=O)CCC(=O)N3CCN(c4ccccc4F)CC3)n2n1 | 21.0&-6.2 | 6.8% | 3.6% | 0.1%&-0.6% | 21.0% | 0.4 | · |
| CCc1cccc(CC)c1NC(=O)CN(CC(=O)O)CC(=O)O | 4.9 | -16.0% | -0.5% | 0.7% | · | -10.1 | -2.4[24.8 µM] |
| Nc1c2ccccc2nc2ccccc12 | -16.2&20.0 | 0.7%&23.3%&-17.4% | 4.4%&-3.3% | 3.9%&-0.6% | 5.7%[15.4 µM] | ? | -5.1&-0.5&-3.4 |
| O=C(c1ccccn1)N(Cc1cccs1)C1(C(=O)NC2CCCCC2)CCCCC1 | 10.7 | -6.3% | -5.2% | · | 0.4%[15.4 µM] | -23.1 | -3.3 |
| CCCCCCCCCCCCCCCC(O)C(N)CO (stereo not drawn) | -2.3 | -18.3% | 6.4% | 2.3% | · | 4.1 | 1.8 |
